Screening results deposited in PubChem by National Center for Advancing Translational Sciences (NCATS).
CtBP-E1A blk = qHTS Assay for Inhibitors of the CtBP/E1A Interaction; AlphaScreen GST-E1A/His-CtBP binding, 1536-well; active compounds read low; control for the full effect not named in the record; activity change, % (test concentration not listed); 340,000 tested, 0.49% active; in the data active means activity change below about -65%; inconclusive means about -30% to -65%; inactive means above about -30%; note: % is set by controls: 0 for no effect and ±100 for the full control effect
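GST-E1A and His-tagged CtBP (125 nM each as 5X stock) were preincubated with pin-transferred compound for 2 h at 37 °C in the dark, then glutathione donor and nickel acceptor beads were added for 1 h before AlphaScreen reading.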
Six1-Eya2 blk = qHTS Assay for Inhibitors of the Six1/Eya2 Interaction; Homeobox protein SIX1 (Homo sapiens) + Protein phosphatase EYA2 (Homo sapiens), …; AlphaScreen GST-Six1/His-Eya2 binding, biochemical; active compounds read low; control for the full effect not named in the record; activity change, % (no concentration beside the values); 360,000 tested, 0.56% active; AID 651725, 2012; in the data active = activity change below about -65%; inconclusive = about -30% to -65%; inactive = above about -30%; note: % is set by controls: 0 for no effect and ±100 for the full control effect
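AlphaScreen luminescence read after one hour at 37 °C in darkness. Pin-transferred compounds met GST-Six1 and His-Eya2 protein (5X stock 250 nM/500 nM) plus glutathione donor and Ni-chelate acceptor beads (5X, 50 ug/mL).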
D2 potentiator = Beta-Arrestin HTS for Positive Allosteric Modulators of the Human D2 Dopamine Receptor: Potentiators; D(2) dopamine receptor (Homo sapiens), P14416; DiscoveRx D2 beta-arrestin cells, luminescence, 90 min; 100% = 57 uM dopamine signal; potentiation, % (no concentration beside the values); 360,000 tested, 0.23% active; AID 624464, 2012; active = potentiation of 50% or more; inconclusive = 30% to 50%; inactive = 30% or less;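 note: compound concentration not given in the record; tested on top of an EC20 dose of dopamine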
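PathHunter beta-arrestin assay in DiscoveRx D2 cells. Compounds were added with an EC20 of dopamine (50 nM final) for 90 min at 37 deg C. Luminescence was read 1 h after detection reagent, with 57 uM dopamine as the EC100 control.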
PINK1 modulator = A Quantitative High throughput Screen to Identify Chemical Modulators of PINK1 Expression; PINK1 immunofluorescence, high-content cytometry, 24 h; Potency, µM (titrated, usually from 76.6 µM), for the others: top-dose activation (PINK1 increase), usual class: activators; 410,000 tested, 0.2% active; active = well fitted activation curve with a large enough effect; inconclusive = small, poorly fitted or top-dose-only effect; inactive = flat fitted curve, though single readings scatter; cell line not stated here;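 note: potency is the fitted concentration of half-maximal effect; % of control where 0% means no effect; nearly all actives have a fitted effect of over 65% in size; a mitochondrial uncoupler was the plate control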
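Compound titrations (5 concentrations, 24 h) on a stable cell line; DMSO and CCCP controls. Endpoint: fixed-cell PINK1 immunofluorescence with mitochondrial, cell and nuclear markers, scanned by microplate cytometer.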
TRPV1 potentiator = HTS Assay for Compounds that Act as Potentiators of the Vanilloid Receptor 1 | Transient receptor potential cation channel subfamily V member 1 (Homo sapiens), Q8NER1 | TRPV1-expressing cells, Fluo-8 calcium influx, capsaicin EC20 potentiation; host cell line not named in the record; control for the full effect not named in the record | potentiation, % at 8.33 µM | 320,000 tested, 0.02% active; active means potentiation above 80%; inconclusive means 30% to 80%; inactive means below 30%; note: 0% is about no effect
Target sequence (Q8NER1 whole entry, looked up): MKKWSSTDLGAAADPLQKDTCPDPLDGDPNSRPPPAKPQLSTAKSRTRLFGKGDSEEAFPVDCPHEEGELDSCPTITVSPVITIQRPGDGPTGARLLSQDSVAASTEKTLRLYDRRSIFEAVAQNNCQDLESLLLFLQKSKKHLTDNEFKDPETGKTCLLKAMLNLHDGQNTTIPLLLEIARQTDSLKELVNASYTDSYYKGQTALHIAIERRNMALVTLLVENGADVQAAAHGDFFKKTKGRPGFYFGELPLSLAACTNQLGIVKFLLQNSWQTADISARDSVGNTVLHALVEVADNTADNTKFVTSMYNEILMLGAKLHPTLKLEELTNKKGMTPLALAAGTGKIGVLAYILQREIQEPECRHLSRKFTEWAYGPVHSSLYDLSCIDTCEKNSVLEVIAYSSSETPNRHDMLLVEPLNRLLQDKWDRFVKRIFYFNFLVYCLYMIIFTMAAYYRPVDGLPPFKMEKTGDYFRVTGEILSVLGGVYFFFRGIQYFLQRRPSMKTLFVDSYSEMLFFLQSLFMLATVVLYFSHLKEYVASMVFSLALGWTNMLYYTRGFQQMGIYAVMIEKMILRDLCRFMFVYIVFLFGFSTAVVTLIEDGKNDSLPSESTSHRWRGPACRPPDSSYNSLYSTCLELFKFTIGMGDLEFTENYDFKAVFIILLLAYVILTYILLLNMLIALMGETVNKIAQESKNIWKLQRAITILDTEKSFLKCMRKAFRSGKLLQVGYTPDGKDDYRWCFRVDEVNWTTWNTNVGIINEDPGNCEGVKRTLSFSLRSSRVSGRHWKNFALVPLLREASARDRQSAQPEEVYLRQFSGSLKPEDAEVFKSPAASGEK
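Fluo-8 calcium influx in TRPV1-expressing cells, kinetic read (ex 480/em 520 nm). Compound added and read 3 min for agonist activity, followed by capsaicin at EC20 final and 2 min further read for enhancement.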
D2 agonist = Beta-Arrestin HTS for Positive Allosteric Modulators of the Human D2 Dopamine Receptor: Agonists. DiscoveRx PathHunter D2 beta-arrestin, luminescence, 90 min; 100% = 57 uM dopamine signal. D(2) dopamine receptor (Homo sapiens), P14416. 360,000 tested, 0.084% active. activation, % (test concentration not listed). AID 624465, 2012; in the data active = activation above about 40%; inconclusive = about 15% to 40%; inactive = below about 15%; note: compound concentration not given in the record; the text of the record calls up to 30% inactive
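Agonist mode: compounds alone added to overnight-plated D2 PathHunter cells for 90 min at 37 C, with 57 uM final dopamine (EC100) defining full response. Beta-arrestin recruitment detected by chemiluminescent reagent, read after 1 h at ambient temperature.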
Sfp PPTase inh = qHTS Assay for Inhibitors of Bacillus subtilis Sfp phosphopantetheinyl transferase (PPTase) | 310,000 tested, 3.5% active | Biochemical Sfp PPTase activity, qHTS | Potency, µM, inactives show max response, negative = inhibition, hits mostly inhibitors | 4'-phosphopantetheinyl transferase ffp (Bacillus subtilis), Q9F4F7; active = well fitted inhibition curve with a large enough effect; inconclusive = small, poorly fitted or top-dose-only effect, or another doubt; inactive = no such curve, though single readings can be large or run the other way;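 note: the enzyme is Sfp with the accession as filed and its product quenches rhodamine fluorescence; potency is the fitted concentration of half-maximal effect; 0% = enzyme reaction without inhibitor and -100% = no enzyme wells; top concentration of the series not given in the record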
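Compounds were incubated with enzyme (final 15 nM) for 15 min at room temperature before substrate addition started the reaction. Fluorescence at 525 nm excitation, 598 nm emission was recorded immediately and after 30 minutes.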
Starred values were filed as active, the others as inactive; ? = inconclusive; nt = no result given; [ ] = remark or other dose. Rows were taken by chance; overall some 3.7% were active at least once.

SMILES | CtBP-E1A blk | Six1-Eya2 blk | D2 potentiator | PINK1 modulator | TRPV1 potentiator | D2 agonist | Sfp PPTase inh
COc1cc(/C=N\NC(=O)C2C(=O)NCC2c2ccccc2)cc(OC)c1O (stereo not given) | 5 | -3 | -3 | -1.7% | -2 | -0.8 | -10%
CC(C)CN(C(=O)CSc1nn(-c2ccc(Cl)cc2)c(=S)s1)C1CCS(=O)(=O)C1 (stereo not given) | 10 | 0 | -5 | 2.4% | 11 | -3.5 | 6%
Nc1ccc2nc(-c3ccccc3)c(-c3ccccc3)nc2c1 | 27 | 4 | 14 | 2.4% | 15 | 2.8 | 10%
COC(=O)c1sc(S(=O)(=O)Oc2ccccc2NC(C)=O)c(C(=O)OC)c1C | 1 | -3 | -21 | 0.1% | -14 | -4.1 | nt
CC(C)(C)OC(=O)NCCCC[C@H](NC(=O)c1[nH]cnc1C(=O)N[C@@H](Cc1ccccc1)C(=O)OCc1ccccc1)C(=O)OC(C)(C)C | -2 | -4 | -8 | 0.5% | nt | -7.2 | nt
Cc1nn(-c2ccccc2)c(C)c1-c1cc(C(=O)N/N=C/c2ccc(O)cc2)[nH]n1 | ? | -14 | 4 | 5.5% | 30 | 6.5 | 22%
COCCNC(=O)C(=O)NCC1OCCCN1S(=O)(=O)c1cccs1 (stereo not given) | 1 | 2 | -9 | 1.5% | 1 | 0.1 | 6%
CCc1nnc2c(N(C)C)nc3ccccc3n12 | nt | -20 | -4 | 0.1% | 4 | -6.6 | 11%
CC1c2cc3c(cc2CCN1S(=O)(=O)c1ccccc1)OCCCO3 (stereo not given) | 5 | -1 | -8 | -1.5% | -21 | -1.2 | -1%
O=C(N[C@@H]1c2ccccc2CC[C@@H]1OCc1ccccc1)c1ccc(C(F)(F)F)cc1 | 6 | 3 | nt | 3.5% | nt | -0.5 | nt
CC1=C(C(=O)Nc2ccccn2)C(c2ccc(Br)cc2)NC(=S)N1 (stereo not given) | -7 | -12 | -6 | 4.2% | 0 | 0.7 | 11%
Cc1ccc(NC(=O)C2CC(=O)n3c(nc4ccccc43)N2)cc1C (stereo not given) | 3 | -2 | -2 | -2.2% | 9 | -1.2 | -6%
Cc1cc(C)c2cccc(N)c2n1 | 0 | -15 | -6 | 7.4% | 0 | -3.1 | -9%
O=C(NCCCN1CCCC1=O)c1ccc(S(=O)(=O)Nc2cccc(C(F)(F)F)c2)cc1 | -12 | 7 | 4 | 2.8% | 1 | 5.8 | nt
CC(C)N(C(=O)N1CCN(c2ccnc3cc(Cl)ccc23)CC1)C(C)C | -3 | -3 | 12 | 2.2% | -22 | 3.4 | -2%
CC(C)NC(=O)c1ccccc1-c1nc(-c2ccccc2Cl)no1 | 3 | -3 | -1 | 5.3% | 23 | -2.2 | 11%
COc1cc(NC(=O)CCCNC(=O)c2ccc(Cl)cc2)cc(OC)c1 | 5 | 0 | 0 | 0.2% | -1 | -0.5 | 9%
CCOC(=O)c1ccc(NC(=O)CSc2nc3c(c(=O)n2C)SC(C)C3)cc1 (stereo not given) | -3 | -11 | 9 | 1.5% | -7 | 3.7 | -13%
O=C1c2ccccc2C(=O)N1c1ccc(Cc2ccncc2)cc1 | -2 | 5 | -1 | -0.6% | 6 | 3.0 | 14%
CCCCc1nc2ccccc2c(NC(=O)CN2CCN(C)CC2)c1CCC | 0 | 0 | -18 | 0.6% | 4 | -2.3 | ?
Cc1cc(C)cc(NC(=O)Nc2cc(S(=O)(=O)N(C)C)ccc2C)c1 | -7 | -4 | -19 | 22% | 0 | -2.3 | 0%
O=C(NNC(=O)c1cccnc1)c1ccncc1 | 2 | -3 | -9 | 0.8% | ? | -2.1 | 11%
N#C[C@]1(S(=O)(=O)c2ccccc2)C[C@@H]2ON=C(c3cccc(Br)c3)[C@@H]2C1 | -6 | -3 | -8 | 1.3% | 15 | -0.1 | -2%
CC(C)(C)c1ccc(/C=C(\C#N)C(=O)NC2CC2)cc1 | -2 | 2 | -4 | 1.4% | nt | -6.1 | nt
COc1ccc(OC)c(N/C(N)=N/c2nc(C)cc(C)n2)c1 | 0 | -3 | -2 | 1.8% | 1 | -3.4 | -10%
COC(=O)/C(=C\Nc1ccccc1)NC(=O)c1ccc(Cl)cc1Cl | -5 | 0 | 2 | 1.7% | 1 | -3.2 | 79µM*
O=S(=O)(Nc1cc(F)ccc1F)c1cccc2nsnc12 | -3 | 17 | -7 | 1.2% | ? | -7.7 | 4%
Cc1ccccc1N1CN(Cc2ccco2)CNC1=S | -23 | -9 | -3 | -1.2% | 1 | -3.8 | 7%
O=C(Nc1ccc(F)cc1)NC1CCCCCCC1 | 13 | 8 | 1 | 2.9% | -7 | -3.5 | 13%
CC(C)C[C@H]1CN([C@@H](CC(C)C)CN2CCC[C@H]2CN2C(=O)C(=O)NC[C@@H]2Cc2ccc(O)cc2)C(=O)C(=O)N1CCc1ccccc1 | -16 | -21 | nt | 1.8% | nt | nt | nt
CC(=O)N(O)CCCCCNC(=O)CCC(=O)N(O)CCCCCNC(=O)CCC(=O)N(O)CCCCCNC(=O)CCC(=O)O | 2 | 1 | nt | 1.1% | nt | 1.6 | nt
COc1ccc(NC(=O)C(c2ccccc2)N(C)C(=O)c2ccc(=O)[nH]c2)cc1 (stereo not given) | 14 | 2 | 4 | 0.3% | -2 | 0.9 | 10%
CC(C)C(=O)N1CCN(C2=NS(=O)(=O)c3ccccc32)CC1 | 4 | 2 | -2 | 0.3% | 4 | -0.3 | 16%
Cc1cc(C)n(S(=O)(=O)c2ccc(C)c(C)c2C)n1 | 0 | 1 | -2 | 1.4% | 1 | -0.7 | 9%
CCCCN1C(=O)C(CC(=O)NC(c2ccccc2)c2ccccc2)CC(C(=O)N2CCOCC2)=C1C (stereo not given) | -24 | 4 | -4 | 1.1% | nt | -7.4 | nt
CSc1ccc(S(=O)(=O)NCCCOC(C)C)cc1 | 6 | 0 | -2 | -1.1% | -9 | -3.5 | 16%
Cc1cccc(-n2c(Cn3nc(C)c([N+](=O)[O-])c3C)n[nH]c2=S)c1 | 0 | 0 | -12 | -0.3% | -7 | -0.5 | -7%
Cc1ccc(Sc2cc(N3CCOCC3)nc(-c3ccccc3)n2)cc1 | 25 | 29 | -9 | 2.3% | 10 | 2.6 | -1%
CCOc1ccccc1NC(=O)N1CCCC1C(=O)Nc1ccc(-n2cnnn2)c(C)c1 (stereo not given) | -3 | -4 | -17 | -0.2% | -3 | -0.2 | 6%
COc1ccc(NC(=O)c2ccc(N3C(=O)C4CC=C(Cl)CC4C3=O)cc2)cc1 (stereo not given) | nt | -9 | -27 | -0.2% | -8 | -4.2 | 16%
C=CCC1NS(=O)(=O)OC(CCc2ccccc2)C1O (stereo not given) | 7 | 1 | 4 | 6.0% | 1 | -7.6 | 24%
COCCn1c(C)cc(C(=O)Cn2nc(C(=O)O)c3ccccc3c2=O)c1C | nt | -13 | -8 | -2.1% | 5 | 2.8 | 9%
Cc1c(N=Cc2ccc(Br)s2)cccc1[N+](=O)[O-] | 9 | 4 | 4 | 6.6%[38.3 µM] | -10 | 7.6 | -1%
C=CCn1c(Cc2cccs2)nnc1SC/C=C/c1ccccc1 | 5 | -2 | -1 | 2.8%[38.3 µM] | 9 | -2.2 | -17%
CCCNC(=O)C1(C)CCCN(Cc2ccc(C#N)cc2)C1 (stereo not given) | 9 | 0 | -7 | -0.2% | nt | -4.4 | nt
Cc1cc(C)c(CN2CCN(Cc3ccc(C)o3)C(CCO)C2)c(-n2cccn2)c1 (stereo not given) | -11 | 3 | -28 | 2.5% | -12 | -3.3 | -2%
Cc1ccc(CCNC(=O)c2ccc(CS(=O)(=O)Cc3ccc(F)cc3)o2)cc1 | nt | 4 | -11 | 1.4% | -14 | -1.0 | 19%
Cc1ccc(NS(=O)(=O)c2cc(C(=O)N3CCOCC3)ccc2C)cc1 | 5 | 3 | 10 | nt | 7 | -4.4 | 21%
COC(=O)NCC(c1cccnc1)N1CCN(c2ccccc2)CC1 (stereo not given) | -1 | 4 | -5 | 0.0% | 10 | -2.5 | 10%
CCn1nc(C)cc1C(=O)N1CCCC(CCC(=O)NCc2ccccc2F)C1 (stereo not given) | 6 | 3 | -1 | 0.1% | 4 | -2.2 | 6%
CCCCc1ccc(S(=O)(=O)N2CCN(C(=O)c3ccco3)CC2)cc1 | 7 | -2 | 5 | -1.3% | -5 | -0.9 | -7%
O=C(CCC(=O)N1CCN(c2ccccc2)CC1)Nc1nnc(C2CCCCC2)s1 | 1 | 1 | -3 | 2.3% | 3 | 1.4 | 8%
COc1ccc(NC(=O)CSc2n[nH]c(-c3ccncc3)n2)c([N+](=O)[O-])c1 | 0 | -13 | -10 | 0.0% | 8 | 6.4 | 13%
O=C(Nc1ccccc1)c1cccc(N2C(=O)C3C4CC(C(Br)C4Br)C3C2=O)c1 (stereo not given) | -2 | 3 | 4 | -0.3% | -9 | 2.3 | 2%
CC(C)(C)OC(=O)N1C[C@H](O)C[C@H]1C(=O)OCC(=O)c1ccc([N+](=O)[O-])cc1 | -19 | 6 | -9 | -1.1% | 2 | ? | -4%
Cc1nn(CC(=O)NCc2ccc(Cl)cc2)c(C)c1[N+](=O)[O-] | 6 | 2 | 3 | 13% | -17 | -3.2 | 7%
O=C(Cc1c[nH]c2ccccc12)Nc1ccc(N2CCOCC2)cc1 | -18 | 1 | 3 | 1.6% | 10 | 5.6 | -7%
Cc1ccccc1OCC(=O)Nc1ccccc1-c1ccccc1NC(=O)COc1ccccc1C | 12 | 12 | -20 | 1.4% | 3 | -3.9 | 4%

As entered above.
In D2 agonist, O=C(CCC(=O)N1CCN(c2ccccc2)CC1)Nc1nnc(C2CCCCC2)s1 is entered as 1.4
In Sfp PPTase inh, Cc1nn(CC(=O)NCc2ccc(Cl)cc2)c(C)c1[N+](=O)[O-] is entered as 7%
